From PubChem BioAssay
MT1-MMP act inh: blockers of MT1-MMP proenzyme processing, primary screen, HT1080 RFP-PRO-GFP cells, GFP/RFP fluorescence; 360,000 tested, 0.061% active; Matrix metalloproteinase-14 (Homo sapiens), P50281; GFP/RFP ratio fluorescence, overnight; percent of plate control window, DMSO zero; GFP/RFP ratio change, % at 20 µM;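 active = GFP/RFP ratio change of at least 30% with cell ATP level not reduced by more than half and red fluorescence within 50% of control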; also: strong numbers were not always called active
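Material – HT1080 RFP-PRO-GFP cells · Control set – DMSO wells and RFP-L50D-GFP cells · Incubation – overnight cell settling, then overnight compound exposure, 37 °C, 5% CO2 · Compound dosing – single-point 20 µM compound, 1% DMSO · Read-out – GFP/RFP fluorescence ratio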
PABP polyA inh: PABP poly(A) RNA binding inhibitors, primary screen, biochemical, fluorescence polarization, uHTS | inhibition, % at 35 µM | 290,000 tested, 1% active;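 active = 50% or more with normal probe brightness, or confirmed in later tests; about a fifth of its hits are not listed in these tables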;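 also: calls also rest on retests at 20 µM and on dose response follow-up; controls were probe without protein and protein plus probe with vehicle; some compounds called inactive have numbers as strong as hits; many hits fall short of the cut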
Target sequence (P11940 whole entry, looked up): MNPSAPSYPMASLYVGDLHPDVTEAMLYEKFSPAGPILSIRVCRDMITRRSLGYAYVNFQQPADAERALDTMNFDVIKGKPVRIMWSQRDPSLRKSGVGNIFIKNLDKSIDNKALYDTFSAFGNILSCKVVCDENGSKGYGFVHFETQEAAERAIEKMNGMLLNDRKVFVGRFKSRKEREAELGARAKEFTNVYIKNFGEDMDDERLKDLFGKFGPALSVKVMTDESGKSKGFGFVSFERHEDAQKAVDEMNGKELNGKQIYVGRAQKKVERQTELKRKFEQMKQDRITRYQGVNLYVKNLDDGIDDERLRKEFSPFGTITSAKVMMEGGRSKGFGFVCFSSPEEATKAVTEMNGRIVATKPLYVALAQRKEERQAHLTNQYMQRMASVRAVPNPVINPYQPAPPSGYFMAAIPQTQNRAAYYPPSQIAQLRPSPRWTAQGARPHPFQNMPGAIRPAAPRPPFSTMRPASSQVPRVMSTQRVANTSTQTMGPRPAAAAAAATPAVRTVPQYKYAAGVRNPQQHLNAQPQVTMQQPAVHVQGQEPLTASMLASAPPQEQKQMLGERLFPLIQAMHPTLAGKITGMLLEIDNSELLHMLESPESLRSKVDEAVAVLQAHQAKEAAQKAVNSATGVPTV
UUG fidelity: modulators of yeast start codon fidelity, primary screen, whole organism, S. cerevisiae, single point, plate reader; 350,000 tested, 0.13% active; activity score, % at 18.7 µM; S. cerevisiae UUG-firefly luciferase reporter, luminescence/redox ratio; AID 602363, 2012;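 active = replicate mean at a twofold rise or more, about +100% in these data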;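 also: firefly luciferase made from a UUG start codon reports start codon fidelity; reporter light over untreated wells divided by growth signal over untreated wells; some hits fall short of that in this replicate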
eIF4H FP inh: human eIF4H binding inhibitors, primary screen, translation initiation inhibitor project, biochemical, uHTS, fluorescence polarization; Eukaryotic translation initiation factor 4H (Homo sapiens), Q15056; eIF4H fluorescence polarization binding assay; inhibition, % at 35 µM; 290,000 tested, 0.94% active; AID 2012, 2009;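 active = 50% or more with normal probe brightness, or confirmed in later tests; about a fifth of its hits are not listed in these tables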;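 also: calls also rest on retests at 20 µM and on dose response follow-up; 0% = protein and probe with vehicle and 100% = probe without protein; strong numbers were not always called active; many hits fall short of the cut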
Rce1 inhib: yeast Rce1p protease inhibitors, primary screen, biochemical, fluorescence, cell-free homogeneous; 290,000 tested, 0.27% active; calls only; yeast membranes, quenched prenylated peptide cleavage fluorescence;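 active = fall in fluorescence gain of 50% or more versus controls, with final raw signal at or below 3038400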;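 also: plate controls were neutral control wells for no effect and wells lacking membranes for full effect; tested at 10 µM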
Target sequence (Q03530 whole entry, looked up): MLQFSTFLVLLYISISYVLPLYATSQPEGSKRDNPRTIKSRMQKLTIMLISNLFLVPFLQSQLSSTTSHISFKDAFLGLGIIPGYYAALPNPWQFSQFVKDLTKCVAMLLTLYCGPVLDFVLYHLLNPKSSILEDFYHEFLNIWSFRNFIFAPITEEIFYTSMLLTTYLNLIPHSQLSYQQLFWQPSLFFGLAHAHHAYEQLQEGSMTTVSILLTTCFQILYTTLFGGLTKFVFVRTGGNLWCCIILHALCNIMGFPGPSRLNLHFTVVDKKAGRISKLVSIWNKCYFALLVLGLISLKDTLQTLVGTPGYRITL
Env fusion inh: inhibitors of HIV-1 Env-driven cell-cell fusion, primary screen, HeLa-JRFL effector, CEM21 target cells, luciferase. inhibition, % at 12.3 µM. 360,000 tested, 1.1% active;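 active = mean replicate inhibition score of at least 50 and every replicate individually at or above 50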;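 also: 0% = plate neutral controls and 100% = maraviroc near 300 nM; one replicate is shown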
CSC inhib: cancer stem cell viability inhibitors, primary screen, luminescence | cancer stem cell-like cells viability | inhibition, % at 7.5 µM | 300,000 tested, 1.1% active;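 active = mean at 75% or more and at least half the replicates too; tested in HMLE shEcad cells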;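 also: 0% = median of negative and 100% = median of positive control wells; the first replicate is given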
MT1-MMP act inh RFP: recorded beside MT1-MMP act inh, whose call it bears; RFP signal change, %; measured here: RFP expression control read;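 0 = vehicle wells; hits needed this value within 50% of zero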
Active calls of the source: *; i = inactive; . = no result given.

1	CC1(C(=O)Nc2ccc3c(c2)OCO3)CCN1C(=O)Cc1cccs1 (configuration not stated)
2	CCC(=O)Nc1cc2[nH]c(=O)cc(C)c2cc1C
3	Cc1[nH]nc(SCC(=O)N2CCCC2)c1[N+](=O)[O-]
4	C[C@H](OC(=O)N1CCN(C(c2ccccc2)c2ccccc2)CC1)[C@@H]1O[C@@]2(C)CCC[C@H]1O2
5	COC(=O)[C@@]12CCCCN1[C@H](c1ccc(-c3ccccc3)cc1)[C@H]1C(=O)N(C)C(=O)[C@H]12
6	CCCc1nc2sc3c(c2c(=O)n1NC(=O)c1ccco1)CC(C)(C)OC3
7	Cc1ccc(C(=O)N2CCN(c3ncc(C(F)(F)F)cc3Cl)CC2)s1
8	O=C(COC(=O)c1ccc(Cl)nc1)Nc1ccc(N2CCCCC2)cc1

assay / entry	1	2	3	4	5	6	7	8
MT1-MMP act inh	4	-1	1	-1	-2	-4	3	6
MT1-MMP act inh RFP	1	0	4	-4	-4	-3	-5	8
PABP polyA inh	.	1	35	.	.	12	0	.
UUG fidelity	-5	.	-21	-28	-10	-5	-2	-12
eIF4H FP inh	.	0	0	.	.	-4	-14	.
Rce1 inhib	.	i	i	i	i	i	i	.
Env fusion inh	3	10	-13	18	19	-28	-224	0
CSC inhib	.	-16	-10	6	48	-16	11	.

In the list so far, 3 contain a thiophene ring, fused or not.
1	CC1(C(=O)Nc2ccc3c(c2)OCO3)CCN1C(=O)Cc1cccs1 (configuration not stated)
6	CCCc1nc2sc3c(c2c(=O)n1NC(=O)c1ccco1)CC(C)(C)OC3
7	Cc1ccc(C(=O)N2CCN(c3ncc(C(F)(F)F)cc3Cl)CC2)s1

assay / entry	1	6	7
MT1-MMP act inh	4	-4	3
MT1-MMP act inh RFP	1	-3	-5
PABP polyA inh	.	12	0
UUG fidelity	-5	-5	-2
eIF4H FP inh	.	-4	-14
Rce1 inhib	.	i	i
Env fusion inh	3	-28	-224
CSC inhib	.	-16	11

Continued.
9	COC(=O)c1nn(-c2ccc(-c3ccccc3)cc2)cc1O
10	CO/N=C(\C(=O)O)c1csc(NN=C(C)C)n1
11	Cc1ccc(C(C)C)c(OCC(O)CN(C)Cc2ccccc2)c1 (configuration not stated)
12	CCC(=O)N1c2ccc(S(=O)(=O)CCC(=O)Nc3ccc(OC)cc3OC)cc2CC1C (configuration not stated)
13	COc1ccc(-c2csc(N3CCN(c4cc5c(cc4Cl)nc(-c4ccncc4)n5CCOCCO)CC3)n2)cc1
14	CCc1ccc2cc(F)cc(F)c2n1
15	Cc1ccc(OCCSc2nc3ccccc3n2CCC(=O)O)c(C(C)C)c1
16	O=C(Cc1cccs1)Nc1nnc(Cc2ccc(F)cc2)s1

assay / entry	9	10	11	12	13	14	15	16
MT1-MMP act inh	0	0	-4	-2	3	1	1	.
MT1-MMP act inh RFP	-2	4	-4	1	4	4	0	.
PABP polyA inh	-4	6	-1	1	7	.	.	5
UUG fidelity	-71	.	-12	2	20	-5	-10	.
eIF4H FP inh	-2	4	0	2	15	.	.	3
Rce1 inhib	i	i	i	i	i	.	.	.
Env fusion inh	.	6	11	4	27	17	7	-100
CSC inhib	21	3	3	12	5	.	.	.

17	O=C(COC(=O)CCS(=O)(=O)c1ccc(Cl)cc1)NCCc1ccc(Cl)cc1Cl
18	COCCNc1nc(NCc2ccc(NC(C)=O)cc2)c2sc(-c3ccccc3)cc2n1
19	O=C(Nc1ccc2c(c1)OCO2)C1CCCCN1S(=O)(=O)c1ccc(F)cc1 (configuration not stated)
20	CC(=O)Nc1cc(C(=O)N2CCN(C)CC2)ccc1S(=O)(=O)c1ccc(C)cc1
21	O=C(c1cc2ccccc2oc1=O)N(Cc1ccccc1)Cc1ccc2c(c1)OCO2
22	CO/N=C(\CCC(=O)O)c1cccs1
23	COC(=O)CSc1nc2nc(-c3cccs3)cc(C(F)(F)F)c2c(=O)[nH]1
24	O=C(CSc1c(Cl)cccc1Cl)NC1CCCc2ccccc21 (configuration not stated)

assay / entry	17	18	19	20	21	22	23	24
MT1-MMP act inh	-3	-20	4	2	-11	-1	1	-7
MT1-MMP act inh RFP	3	-23	5	0	-9	4	-3	-2
PABP polyA inh	9	.	3	-1	-3	-1	13	-1
UUG fidelity	.	-17	-16	-11	-10	-16	-7	4
eIF4H FP inh	-6	.	-8	-4	5	-10	-4	14
Rce1 inhib	i	.	i	i	i	i	i	i
Env fusion inh	-28	5	-39	-49	-45	-2	11	-3
CSC inhib	-9	.	13	-10	5	-14	-19	-9

25	COC(=O)Nc1nc(Sc2ncc(C(F)(F)F)cc2Cl)n[nH]1
26	COc1ccc(/C=N/Nc2cc(N3CCOCC3)ncn2)c(OC)c1
27	Cc1cc(C)nc(N(C#N)CC(=O)c2ccccc2)n1
28	CN(C)CCCNc1nc2cc(-c3cccc(Cl)c3)sc2c(=O)n1C
29	CC(=O)N1CCN(C(=S)NCCc2ccccc2)CC1
30	O=C(CCNc1n[nH]c(=O)[nH]c1=O)N/N=C/c1ccccc1Br
31	Nc1nnc(CC(=O)N/N=C/c2cccc(OCCOc3ccccc3)c2)s1
32	CCCSc1nnc(Nc2ccccc2C)s1

assay / entry	25	26	27	28	29	30	31	32
MT1-MMP act inh	2	-5	5	3	2	0	3	3
MT1-MMP act inh RFP	8	-7	0	2	1	2	-3	2
PABP polyA inh	-5	-3	-4	.	-1	4	-3	-10
UUG fidelity	.	11	-5	-10	.	.	-9	-16
eIF4H FP inh	-7	-1	-10	.	-12	2	-15	-6
Rce1 inhib	i	i	i	.	i	i	i	i
Env fusion inh	1	-8	.	1	-22	-15	.	.
CSC inhib	-1	-15	9	.	2	-4	0	2

33	COc1cc(NC(=S)NCc2cccnc2)cc(OC)c1OC
34	CN(C)C(=O)CCc1ccc2c3c([nH]c2c1)[C@]1(C)[C@@H](C(=O)N2CCCCC2)C[C@H](CC(=O)NC(C)(C)C)C(=O)N1CC3
35	Cc1nn(CCC(=O)NCc2ccc(OC(C)C)cc2)c(=O)c2nn(-c3ccccc3)c(C)c12
36	O=C(NC(=S)Nc1nc2c(ccc3ccccc32)s1)c1cccs1
37	Fc1ccc(C2CCCN2Cc2nc(CC3CC3)no2)cc1 (configuration not stated)
38	O=C(C1CC(=O)N(c2ccccc2)C1)N1CCN(c2ccc(F)cc2)CC1 (configuration not stated)
39	Cn1cnc2ncnc(Oc3ccc(Br)cc3)c21
40	Cc1cc(C(=O)NCCC(C)C)c2ccccc2n1

assay / entry	33	34	35	36	37	38	39	40
MT1-MMP act inh	6	5	-3	-2	0	-2	3	-4
MT1-MMP act inh RFP	9	6	0	1	-4	3	-7	-4
PABP polyA inh	-12	.	3	-1	-8	0	.	-3
UUG fidelity	.	20	-6	.	-3	-14	-10	-13
eIF4H FP inh	-2	.	4	44	-12	1	.	-7
Rce1 inhib	i	.	i	i	i	i	.	i
Env fusion inh	4	-43	14	21	8	-11	-37	3
CSC inhib	25	.	-8	2	-3	13	.	-11

Compound profiles, as listed above. Screens in order: MT1-MMP act inh, MT1-MMP act inh RFP, PABP polyA inh, UUG fidelity, eIF4H FP inh, Rce1 inhib, Env fusion inh, CSC inhib
CCCc1nc2sc3c(c2c(=O)n1NC(=O)c1ccco1)CC(C)(C)OC3 is listed with -4, -3, 12, -5, -4, i, -28, -16
CC(=O)N1CCN(C(=S)NCCc2ccccc2)CC1 is listed with 2, 1, -1, ., -12, i, -22, 2
CN(C)C(=O)CCc1ccc2c3c([nH]c2c1)[C@]1(C)[C@@H](C(=O)N2CCCCC2)C[C@H](CC(=O)NC(C)(C)C)C(=O)N1CC3 is listed with 5, 6, ., 20, ., ., -43, .

Next entries.
41	Cc1c(C(=O)Nc2ccccc2F)cnn1-c1ccccc1
42	COc1ccc(OCC(=O)Nc2ccccc2N2CCN(C)CC2)cc1
43	COc1ccc(CCN(Cc2cccs2)S(=O)(=O)c2ccc(S(=O)(=O)N3CCCCCC3)cc2)cc1OC
44	Cc1occc1-c1nnc(SCC(=O)Nc2ccc(F)cc2)n1C
45	COc1cc(Br)ccc1NC(=O)c1ccccc1-c1ccccc1C(=O)O
46	O=C(Nc1ccc(-c2cccc(F)c2)cc1)C1CCCN(Cc2ccccn2)C1 (configuration not stated)
47	COC(=O)c1ccc(NC(=O)C2CCCN2S(=O)(=O)c2ccc(F)cc2)cc1 (configuration not stated)
48	COc1ccc(CNC(=O)/C=C/c2cc3c(cc2Br)OCO3)cc1

assay / entry	41	42	43	44	45	46	47	48
MT1-MMP act inh	2	-8	0	-1	-3	-5	5	0
MT1-MMP act inh RFP	0	-2	0	-2	-5	-1	-9	-3
PABP polyA inh	-8	7	2	-10	.	-6	-5	7
UUG fidelity	-20	-12	.	-6	13	-21	-5	-17
eIF4H FP inh	-4	-9	0	-5	.	10	3	9
Rce1 inhib	i	i	i	i	i	i	i	i
Env fusion inh	-36	15	6	-9	-16	8	.	.
CSC inhib	8	1	-4	.	.	5	2	-6

49	COCCN(C(=O)CCC(=O)Nc1cccnc1)C(C(=O)NC1CCCCC1)c1ccccc1 (configuration not stated)
50	Cc1cccc(/C=C2/SC(=O)N(Cc3ccccc3)C2=O)n1
51	O=C(CCCn1cc([N+](=O)[O-])cn1)N1CCCCC1
52	CC(=O)OC[C@@H]1CN(Cc2ccccc2)C[C@H](n2cnc3c(NC4CC4)ncnc32)O1
53	O=C(N/N=C/c1cccc(F)c1)c1c(O)c2ccccc2[nH]c1=O
54	O=C(CN1C(=O)c2ccccc2C1=O)Nc1ccccc1F
55	CCN(CC(=O)Nc1c(F)cccc1F)C(=O)c1cc(-c2cccs2)nn1-c1ccccc1
56	O=C1c2ccccc2C(=O)N1c1ccc(S(=O)(=O)N2CCN(c3ccccc3)CC2)cc1

assay / entry	49	50	51	52	53	54	55	56
MT1-MMP act inh	2	8	-4	-3	-5	-2	-3	7
MT1-MMP act inh RFP	4	4	-1	0	-26	2	-1	7
PABP polyA inh	-5	-3	-3	.	-2	6	.	2
UUG fidelity	-11	-6	-1	-1	.	5	-9	8
eIF4H FP inh	-5	-10	13	.	-14	4	.	-5
Rce1 inhib	i	i	i	.	i	i	i	i
Env fusion inh	24	.	2	9	17	.	2	.
CSC inhib	2	-16	-1	.	35	-8	.	-4

57	Cc1cccc2cc(C(c3nnnn3CC3CCCO3)N3CCCc4ccccc43)c(=O)[nH]c12 (configuration not stated)
58	CN(Cc1ccccc1)C(=O)COC(=O)CCN1C(=O)C2CC=CCC2C1=O (configuration not stated)
59	Cc1cccc2cc(COC(=O)c3cccnc3)c(=O)[nH]c12
60	Cc1ccc(O)c(-c2cc(-c3ccccc3F)[nH]n2)c1
61	CCOc1ccc(/C=N/OCC(=O)Nc2cc(C)on2)cc1
62	CC(C)N(C)S(=O)(=O)c1ccc(NC(=O)CSC(=S)N2CCCC2)cc1
63	O=C(CSc1ncn[nH]1)N1N=C2/C(=C\c3ccco3)CCCC2C1c1ccco1 (configuration not stated)
64	COc1cc(OC)cc(C(=O)OCC(=O)Nc2cccc(S(=O)(=O)NC3=NCCCCC3)c2)c1
65	CCCn1c(CNC(=O)c2cccs2)nc2ccccc21

assay / entry	57	58	59	60	61	62	63	64	65
MT1-MMP act inh	-16	5	-3	8	2	3	3	4	6
MT1-MMP act inh RFP	-2	4	-2	0	7	2	4	-5	2
PABP polyA inh	32	.	28	-6	10	.	.	.	6
UUG fidelity	8	-5	-25	.	-32	.	-7	-6	-12
eIF4H FP inh	17	.	-2	-3	-5	.	.	.	-11
Rce1 inhib	.	.	i	i	i	i	.	.	i
Env fusion inh	-68	.	.	.	0	2	-5	14	-7
CSC inhib	.	-6	-8	.	-5	-1	.	-8	-1
